Bioassay records (PubChem)
Tgondii IFNg = inhibitors of Toxoplasma gondii growth with IFN-gamma; Toxoplasma gondii growth in IFN-gamma-treated host cells; stronger effect = lower value; reference of the scale not given here; activity change, negative = inhibition, %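 (about 20 µM by stock and volumes)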; 3.8% of 69,000 active; AID 1259416;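 active means below -70%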;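 further: host cells are HeLa cells infected with Toxoplasma gondii; parasite growth read as luciferase light; one replicate is shown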
The depositor's hits bear a star; & = joins results of further samples; ! = not confirmed by another sample. Some of the compounds tested. The share of hits here may be higher or lower than overall.

SMILES	Tgondii IFNg
CCCN1CCN(CCN(C)C)c2ncccc2C1	-50.8
O=C(Nc1ccc(F)c(F)c1)c1c(O)c2cccnc2n(Cc2ccccc2)c1=O	-58.2
Cc1nnc([C@@H]2CCO[C@H]3CCN(Cc4ccccn4)C[C@H]32)o1	2.2
COc1ccc(CN2CC3CC(C2)c2cccc(=O)n2C3)cc1OC (stereo unspecified)	14.8
N#Cc1cccc(N2CCCC3(CNCCO3)C2)n1 (stereo unspecified)	-38.4
CNC(=O)[C@@H]1CC2CN(C(=O)c3cnoc3C)CC2N1C(C)C (stereo partly specified)	0.7
CCOCC12CCCOC1CCN(Cc1c(C)noc1C)C2 (stereo unspecified)	74.1
Cc1nc(CN2CCC3(C2)CN(Cc2cccnc2)C3)cs1	-6.7
Cc1nn(C)c(Cl)c1CN1CCC2(CCCNC2)C1 (stereo unspecified)	-62.7
CC(C)NC(=O)[C@H]1CCS(=O)(=O)[C@H]2CNC[C@@H]12	-21.8
C=CCN1C[C@H]2COC[C@H](CC(=O)NCCc3ccncc3)[C@H]2C1	-2.1
Cc1cccc(CN2CCC3(CC(C(=O)N(C)C(C)C)=NO3)C2)n1 (stereo unspecified)	0.5
c1cncc([C@@H]2CCCCN2)c1	16.6
CN(C)CCCNC(=O)c1cc2cccnc2n(Cc2ccccc2)c1=O	-5.9
O=C(NCCCc1ccccc1)c1cc2cccnc2n(Cc2ccc(F)cc2)c1=O	-0.9
COc1ccc(C)cc1CC(=O)N(CCN(C)C)C1CCS(=O)(=O)C1 (stereo unspecified)	-1.7
CN1CCN2CCN(C(=O)c3ccc4nnnn4c3)CC2C1=O (stereo unspecified)	8.2
O=C(NCc1cccc(Cl)c1)c1c(O)c2cccnc2n(Cc2ccccc2)c1=O	-107.0*
CN(Cc1ccncc1)C1CCC[C@@H]2CNC[C@@H]12 (stereo partly specified)	16.4
Cc1nc(N)nc(C)c1CC(=O)N1CC[C@@H]2CC[C@H](C1)N2C	-6.9

5 of the compounds above, as comma-separated lines.
SMILES,Tgondii IFNg
COc1ccc(C)cc1CC(=O)N(CCN(C)C)C1CCS(=O)(=O)C1 (stereo unspecified),-1.7
CN1CCN2CCN(C(=O)c3ccc4nnnn4c3)CC2C1=O (stereo unspecified),8.2
CN(Cc1ccncc1)C1CCC[C@@H]2CNC[C@@H]12 (stereo partly specified),16.4
Cc1nc(N)nc(C)c1CC(=O)N1CC[C@@H]2CC[C@H](C1)N2C,-6.9
CNC(=O)[C@@H]1CC2CN(C(=O)c3cnoc3C)CC2N1C(C)C (stereo partly specified),0.7

The list continues.
SMILES	Tgondii IFNg
O=C(Nc1ccc2c(c1)OCO2)c1c(O)c2cccnc2n(Cc2ccccc2)c1=O	112.9
CCCN(CCC)CCc1c[nH]c2ccc(C(N)=O)cc12	11.7
Cc1cccc(C)c1NC(=O)c1cc2cccnc2n(Cc2ccc(F)cc2)c1=O	-69.5
O=C1CC2(CCN(Cc3cccnc3)C2)CN1c1cccnc1 (stereo unspecified)	4.5
CC(=O)C1(c2ccccc2)CCN(C(=O)Cn2ccc3ccc(F)cc32)CC1	20.6
CC1(n2cc(C3=CCN(Cc4ncccn4)CC3)cn2)CCS(=O)(=O)C1 (stereo unspecified)	0.4
O=C(NC1CCCC1)c1cc2cccnc2n(Cc2ccc(Cl)cc2)c1=O	74.1
COc1ccc(NC(=O)c2cc3cccnc3n(Cc3ccccc3F)c2=O)cc1OC	42.0
CC(Cc1ccccc1F)NCc1ccc(C(=O)N2CCCC2)cc1 (stereo unspecified)	-17.7
CCN(CC)c1ccc(C2NCCc3[nH]cnc32)c(O)c1 (stereo unspecified)	6.8
CO[C@H]1CCC(O[C@H]2CC([C@]3(C)CC[C@]4(C[C@H](O)[C@@H](C)[C@@H]([C@@H](C)/C=C(\C)C(=O)[C@H](C)C[C@H](C)C(=O)O)O4)O3)O[C@]3(O[C@@H](C4O[C@@](O)(CO)[C@H](C)C[C@@H]4C)C[C@@H]3C)[C@@H]2C)O[C@@H]1C (stereo partly specified)	-78.2*
O=C1COC2(CCNCC2)c2ccccc2N1	-2.4
Cn1cc(N2C(=O)CC[C@@H]3[C@@H]2CCN3Cc2ccccn2)cn1	13.7
CC(C)COC1C2CCC1N(Cc1ccccn1)C2 (stereo unspecified)	64.2
COCCN1CCOCC2(CCCN(C(=O)c3cccnc3)C2)C1 (stereo unspecified)	-15.6
Cc1cccc(CN2C(=O)C[C@H]3[C@H]2CCN3Cc2cccs2)n1	-92.8*
COCCN1C[C@H]2[C@H](OC)CCN(C(=O)c3ncccn3)[C@H]2C1	-20.2
CN1CCN(S(=O)(=O)C2CC2)Cc2cccnc21	1.1
CN1CCc2cc3c(cc2[C@H]1C1OC(=O)c2c1ccc1c2OCO1)OCO3 (stereo partly specified)	-26.9
c1ccc(CN2CC3(CCN(c4ncccn4)C3)C2)cc1	24.3

For reference, some entries already given.
SMILES	Tgondii IFNg
CN1CCc2cc3c(cc2[C@H]1C1OC(=O)c2c1ccc1c2OCO1)OCO3 (stereo partly specified)	-26.9
c1ccc(CN2CC3(CCN(c4ncccn4)C3)C2)cc1	24.3

The listing picks up, repeating the 7 entries before the break.
SMILES	Tgondii IFNg
CC(C)COC1C2CCC1N(Cc1ccccn1)C2 (stereo unspecified)	64.2
COCCN1CCOCC2(CCCN(C(=O)c3cccnc3)C2)C1 (stereo unspecified)	-15.6
Cc1cccc(CN2C(=O)C[C@H]3[C@H]2CCN3Cc2cccs2)n1	-92.8*
COCCN1C[C@H]2[C@H](OC)CCN(C(=O)c3ncccn3)[C@H]2C1	-20.2
CN1CCN(S(=O)(=O)C2CC2)Cc2cccnc21	1.1
CN1CCc2cc3c(cc2[C@H]1C1OC(=O)c2c1ccc1c2OCO1)OCO3 (stereo partly specified)	-26.9
c1ccc(CN2CC3(CCN(c4ncccn4)C3)C2)cc1	24.3
Cc1ccccc1NC(=O)c1c(O)c2cccnc2n(Cc2ccccc2)c1=O	83.9
OCC12COC3c4ccccc4C(OC1)N32 (stereo unspecified)	20.8
CC(c1ccccc1)n1cncc1C(=O)O (stereo unspecified)	19.3
CC(CCc1ccccc1)NC(C)C(O)c1ccc(O)cc1 (stereo unspecified)	6.7&9.2&6.1
O=C(O)C[C@@H]1CC[C@H]2NC[C@H](O)COC[C@@H]2O1	-16.2
CCS(=O)(=O)N1CCC2(CCCN(Cc3ccccn3)C2)C1 (stereo unspecified)	-3.8
Cc1ncc2c(c1C(=O)O)CCN(Cc1cccs1)C2	0.3
CN1CCCCC1Cn1cc(C(=O)c2cc([N+](=O)[O-])ccc2I)c2ccccc21 (stereo unspecified)	1.7
CN1C(=O)N(C)C2C1N(C)C(=O)N2C (stereo unspecified)	9.0
CN(C)CCN(Cc1ccc(F)cc1)C(=O)Cc1csc(-c2cccnc2)n1	-13.7
CCN1CCNC(=O)C12CCN(c1cc(OC)ncn1)CC2	64.2
O=C(NC1CCCCCCC1)c1cn(Cc2ccccn2)cc(C(=O)N2CCc3ccccc3C2)c1=O	-2.5
CCCCCNC(=O)c1cc2cccnc2n(Cc2ccc(F)cc2)c1=O	-40.2
CCn1c(O)c(C(c2ccccn2)c2c(O)n(CC)c(=S)[nH]c2=O)c(=O)[nH]c1=S	-32.0
CCN(CC1CCOCC1)C1CCCNC1 (stereo unspecified)	-0.3
Clc1ccc(COC(Cn2ccnc2)c2ccc(Cl)cc2Cl)c(Cl)c1 (stereo unspecified)	-85.2*!
NNC(=O)c1ccc(Cl)cc1	36.3
CCC(CO)NC(=O)C1C=C2c3cccc4[nH]cc(c34)CC2N(C)C1 (stereo unspecified)	6.8
O=C(Nc1cccc(Br)c1)c1cc2cccnc2n(Cc2ccccc2)c1=O	-40.0
CN1C2CCC1CC(OC(c1ccc(F)cc1)c1ccc(F)cc1)C2 (stereo unspecified)	-27.1&29.5
COCCN1C[C@H]2CN(Cc3ccncc3)C[C@H]2C1=O	-24.2
COc1ccc(CCNCc2cccn2C)cc1	-0.4
O=C(O)CCC1C(=O)NC(=O)NC1=O	-12.4
Cc1nccc(CN2CC3CCCN3C[C@H]2C)n1 (stereo partly specified)	28.9
O=C([C@@H]1N[C@@H]2c3cccc(=O)n3C[C@@H]2[C@H]1CO)N1CCCCC1	-4.2
N#Cc1ccccc1NC(=O)c1cc2cccnc2n(Cc2ccc(F)cc2)c1=O	23.0
Cc1ccc(NC(=O)c2c(O)c3cccnc3n(Cc3ccccc3)c2=O)cc1	314.5
Cc1ccc2scc(CC(=O)N(CCN(C)C)C3CCN(C)CC3)c2c1	-40.8
Cc1noc(C[C@@H]2COC[C@@H]3CN(Cc4ccccn4)C[C@@H]32)n1	-19.7
CN1C2CCC1CC(=NOC(=O)C1CCCCC1)C2	11.5
Cc1ccc(NC(=O)c2cc3cccnc3n(Cc3ccc(Cl)cc3)c2=O)cc1C	37.3
O=C(Nc1ccc(Br)cc1)c1cc2cccnc2n(Cc2ccc(F)cc2)c1=O	41.0
O=C(O)c1ccc2c(c1)C1C=CCC1C(c1cccnc1)N2 (stereo unspecified)	58.6
COc1cccc(CN2CC3(C2)[C@H](c2ccccc2)[C@H](CO)N3C(=O)Cc2ccccc2)c1	-13.7
O=C1Nc2ccccc2C12CCN(Cc1nccs1)CC2	28.9
N#CC(C#N)=Cc1ccc([N+](=O)[O-])c(O)c1	13.3
C[N+]1(C)CCc2cc3c(cc2[C@H]1[C@@H]1OC(=O)c2c1ccc1c2OCO1)OCO3	-5.3&38.5
Cc1cccnc1CC(C)N(C)Cc1nc[nH]c1C (stereo unspecified)	6.5
COCc1cncc2c1CCN(C1CCOC1)C2 (stereo unspecified)	-109.2*
c1ccc2sc(C3(N4CCCC4)CCCCC3)cc2c1	7.9

The last six records of the part above open the next one.
SMILES	Tgondii IFNg
O=C1Nc2ccccc2C12CCN(Cc1nccs1)CC2	28.9
N#CC(C#N)=Cc1ccc([N+](=O)[O-])c(O)c1	13.3
C[N+]1(C)CCc2cc3c(cc2[C@H]1[C@@H]1OC(=O)c2c1ccc1c2OCO1)OCO3	-5.3&38.5
Cc1cccnc1CC(C)N(C)Cc1nc[nH]c1C (stereo unspecified)	6.5
COCc1cncc2c1CCN(C1CCOC1)C2 (stereo unspecified)	-109.2*
c1ccc2sc(C3(N4CCCC4)CCCCC3)cc2c1	7.9
CNC(=O)[C@H]1CC2CN(C(=O)Cc3ccsc3)CC2N1C(C)C (stereo partly specified)	0.8
C[C@@H]1CN(Cc2ccc(F)cc2)CCN1C(=O)COc1ccc(Cl)cc1NC(N)=O	-65.9
C=CCS(=O)(=O)N1CCN2CCNC(=O)C2C1 (stereo unspecified)	-1.0
COC[C@@H](NC(C)=O)C(=O)NCc1ccccc1	18.4
COc1ncccc1CN1CC[C@@H]2C[C@H](c3n[nH]c(C)n3)O[C@H]2C1	-43.5
C#CC(C)(O)CC (stereo unspecified)	20.1&23.0
O=C(c1ccc(-c2ccccc2)c(F)c1)C1CCCNC1 (stereo unspecified)	-58.1
CC(=O)Nc1ccc(NC(=O)c2cc3cccnc3n(Cc3ccccc3)c2=O)cc1	41.1
C[N+]1(C)CCc2cc3c(cc2[C@H]1C1OC(=O)c2c1ccc1c2OCO1)OCO3 (stereo partly specified)	15.1
CCN1Cc2ccccc2C2(CCN(c3ccc(C)nn3)CC2)C1	0.9
CS(=O)(=O)N1CCC2(c3ccccc3)CCNCC12 (stereo unspecified)	2.0
CC(C)CN1C[C@@H]2c3nc(N(C)C)ncc3CS(=O)(=O)[C@H]2C1	-4.9
c1ccc(OCC2CC3OCCN(Cc4cccnc4)C3C2)nc1 (stereo unspecified)	3.0
Cc1ccc2c(c1)Cc1c(C(=O)NC3CCCCC3)nn(-c3ccc(Cl)cc3Cl)c1-2	4.7&-26.6
COCCN1C2CCC1CN(c1ncccn1)C2	1.3
COCC12CCCOC1CCN(Cc1c(C)noc1C)C2 (stereo unspecified)	-0.5
O=C(Nc1ccccc1F)c1cc2cccnc2n(Cc2ccccc2)c1=O	124.0
O=C(c1cccs1)N1CC[C@@H]2OCCN(Cc3cccnc3)[C@@H]2C1	23.6
CC(C)NC(=O)[C@H]1C[C@H]2CN(CC3CC3)C[C@H]1O2	-6.8
O=C(Nc1ccncc1)C(=O)c1cn(Cc2ccc(Cl)cc2)c2ccccc12	-78.2*
CCN(CC)CCN1CCO[C@@H]2[C@@H](OCc3ccccn3)CC[C@H]21	-1.8
O=C1CCCC2C3CC(CN12)[C@@H]1CCCCN1C3 (stereo partly specified)	-27.1&16.2
c1ccc(C2CNCc3ccccc32)cc1 (stereo unspecified)	11.1
Fc1ccc(CN2C[C@@H]3CN(c4ncccn4)C[C@@H]3C2)cc1	-10.6
CO[C@H]1[C@H](O)[C@@H](O[C@H]2CC[C@]3(C=O)C4CC[C@]5(C)[C@@H](C6=CC(=O)OC6)CC[C@]5(O)C4CC[C@@H]3C2)O[C@@H](C)[C@@H]1O (stereo partly specified)	-83.1*
Cc1ccc(C(=O)CN2C(=O)CN=C(c3ccc(C)cc3)c3c2sc2c3CCCC2)cc1	23.5
O=C(NC1CCCCC1)c1cc2cccnc2n(Cc2ccccc2)c1=O	8.7
COC(=O)C=CC(=O)NC1CCC2(O)C3Cc4ccc(O)c5c4C2(CCN3CC2CC2)C1O5 (stereo unspecified)	23.5
C=CCN1CCN(CC2CCOCC2)Cc2cccnc21	-29.1
O=C(Cn1cc(C(F)(F)F)ccc1=O)N1CCC2(CCCNC2)C1 (stereo unspecified)	50.6
CN1C(=O)CC(=O)N(c2ccccc2)c2cc(Cl)ccc21	18.8
Cc1cc(OCc2cc(C(=O)O)oc2C)c2c3c(c(=O)oc2c1)CCCC3	40.3
CCOC(=O)CNC(=O)c1cc2cccnc2n(Cc2ccccc2)c1=O	-1.0
CN1CCc2c(COCC(=O)N3CCCC3)cncc2C1	0.5
O=C(NCc1ccc(F)cc1)c1cc2cccnc2n(Cc2ccccc2)c1=O	-53.6
O=C(CCc1cccnc1)N1C[C@@H](c2ccccc2)[C@@H]2[C@H]1C1CCN2CC1	0.0
CC(=O)N1CC[N+](C)(C)CC1	6.2
O=C(c1cc(F)ccc1F)C1CCCNC1 (stereo unspecified)	11.5
Cc1noc(C)c1CN1CCC2(CC1)C(=O)N(CCO)CCN2C	-0.4
Cc1ccc2c(n1)N(CCn1cccn1)CCN(c1ccccn1)C2	51.9
CC(C)N1C2CCN(c3ncc(F)cn3)CC2C[C@H]1CN(C)C (stereo partly specified)	-3.6
